# High-throughput results (PubChem BioAssay)
# Six1-Eya2 inh: Six1/Eya2 interaction inhibition. Q15475+O00167. AlphaScreen GST-Six1/His-Eya2 binding, biochemical; active compounds read low; control for the full effect not named in the record. activity change, % (no concentration beside the values). hit rate 0.56% among 360,000; in the data active = activity change below about -65%; inconclusive = about -30% to -65%; inactive = above about -30%; note: % is set by controls: 0 for no effect and ±100 for the full control effect
#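 AlphaScreen with GST-Six1 and His-Eya2 (5X mix: 250 nM and 500 nM), glutathione donor and nickel acceptor beads; buffer 50 mM Tris pH 8.0, 300 mM NaCl, 1 mM TCEP; 1 h at 37 C in the dark.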
# D2 agonist: activates the human D2 dopamine receptor | P14416 | DiscoveRx PathHunter D2 beta-arrestin, luminescence, 90 min; 100% = 57 uM dopamine signal | activation, % (no concentration beside the values) | hit rate 0.084% among 360,000; in the data active = activation above about 40%; inconclusive = about 15% to 40%; inactive = below about 15%; note: compound concentration not given in the record; the text of the record calls up to 30% inactive
# Target sequence (P14416 whole entry, looked up): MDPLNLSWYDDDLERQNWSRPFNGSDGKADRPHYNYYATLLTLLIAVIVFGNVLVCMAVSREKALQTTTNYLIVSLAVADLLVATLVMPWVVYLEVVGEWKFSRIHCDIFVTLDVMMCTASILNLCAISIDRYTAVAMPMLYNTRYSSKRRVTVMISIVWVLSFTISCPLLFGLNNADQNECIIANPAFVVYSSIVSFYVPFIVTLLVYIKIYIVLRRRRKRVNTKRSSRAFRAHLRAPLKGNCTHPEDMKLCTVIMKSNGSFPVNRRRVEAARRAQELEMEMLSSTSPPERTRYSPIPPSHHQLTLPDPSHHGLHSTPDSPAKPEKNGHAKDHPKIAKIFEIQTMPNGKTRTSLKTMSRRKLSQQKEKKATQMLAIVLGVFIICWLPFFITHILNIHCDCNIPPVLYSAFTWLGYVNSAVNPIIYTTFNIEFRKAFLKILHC
#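 DiscoveRx PathHunter D2 beta-arrestin cells (2,100/well) attached overnight, then compound-stimulated 90 min at 37 C in HBSS/10 mM HEPES/0.1% Tween-20 buffer; beta-galactosidase complementation read by luminescence after 1 h at ambient temperature. Dopamine 57 uM final (EC100) as control.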
# gsp antag: antagonists of gsp mutant (McCune-Albright syndrome). gsp-mutant cells, cAMP HTRF, 30 min; control for the full effect not named in the record. hit rate 0.4% among 340,000. Potency, µM (top dose mostly 76.9 µM), for the others: at the highest dose activity change, negative = inhibition, actives largely listed as inhibitors. AID 624288; active = falling curve of any shape with a large fitted effect; inconclusive = falling curve, mostly with a smaller effect; inactive = flat or rising curve; cell line not stated here;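 note: intracellular cAMP measured with PDE inhibitor Ro 20-1724 present during compound exposure; potency is the fitted concentration of half-maximal effect; % is set by controls: 0 for no effect and ±100 for the full control effect; nearly all actives have a fitted effect of over 65% in size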
#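 Cells, 2000/well, grown 16–24 h in DMEM 10% FBS with 0.5 mg/ml G418, then compounds plus […] (300 uM addition stock), 30 min at 37C. cAMP read by HTRF (cAMP-d2 and anti-cAMP antibody-K in lysis buffer) after 30 min RT.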
# gsp agonist: activates gsp, the McCune-Albright syndrome mutation | gsp mutant cells, cAMP HTRF, 30 min; control for the full effect not named in the record | Potency, µM (series often up to 76.9 µM), for inactives: at the highest dose activation (cAMP increase), actives largely listed as activators | hit rate 0.13% among 340,000; active = well fitted activation curve with a large enough effect; inconclusive = small, poorly fitted or top-dose-only effect, or another doubt; inactive = no such curve, though single readings can be large or run the other way; cell line not stated here;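 note: phosphodiesterase inhibitor Ro 20-1724 added with compounds to block cAMP breakdown; potency is the fitted concentration of half-maximal effect; nearly all actives have a fitted effect of over 60% in size; about a fifth of the inactives were tested at one dose only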
#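 Cells in DMEM/10% FBS with G418 were pretreated with compounds in DMSO plus […] (300 uM stock) for 30 min at 37C. cAMP was measured by HTRF (cAMP-d2 plus anti-cAMP antibody-K) after 30 min at room temperature.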
# D2 potentiator: potentiates the human D2 dopamine receptor allosterically. P14416. DiscoveRx D2 beta-arrestin cells, luminescence, 90 min; 100% = 57 uM dopamine signal. potentiation, % (no concentration beside the values). hit rate 0.23% among 360,000. AID 624464; active = potentiation of 50% or more; inconclusive = 30% to 50%; inactive = 30% or less;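 note: compound concentration not given in the record; tested on top of an EC20 dose of dopamine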
#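 PathHunter D2 cells, attached overnight at 37 deg C, received compound in DMSO plus dopamine at EC20 (50 nM final) for 90 min at 37 deg C. Beta-arrestin recruitment was read as luminescence after 1 h with detection reagent at ambient temperature.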
# CtBP-E1A inh: inhibitors of CtBP/E1A interaction; AlphaScreen GST-E1A/His-CtBP binding, 1536-well; active compounds read low; control for the full effect not named in the record; activity change, % (test concentration not listed); hit rate 0.49% among 340,000; in the data active means activity change below about -65%; inconclusive means about -30% to -65%; inactive means above about -30%; note: % is set by controls: 0 for no effect and ±100 for the full control effect
#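 Protein mix (5X: 125 nM each GST-E1A, His-CtBP) was incubated with pinned compound 2 h at 37 deg C in dark, in 50 mM Tris pH 8.0 buffer with 300 mM NaCl. Glutathione donor and nickel acceptor beads followed; AlphaScreen signal read after 1 h.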
# Active calls of the source: *; ? = inconclusive; . = no result given; [ ] = remark or other dose.
# Values run as follows: Six1-Eya2 inh	D2 agonist	gsp antag	gsp agonist	D2 potentiator	CtBP-E1A inh
> Cc1ccccc1Cn1c(=O)n(Cc2ccco2)c(=O)c2ccccc21
  5	-2.4	-11%	-35%[inhibitor]	-2	-5
> CCOC(=O)c1cc2sc(C)cc2n1CC(=O)N1CCOCC1
  -1	-2.4	-5%	-48%[inhibitor]	-9	6
> COc1ccc(CN(Cc2cccnc2)C(=S)NCCc2ccccc2)cc1OC
  1	-3.5	11%	2%	-13	1
> O=C(c1cc(C(=O)c2ccco2)cc(C(=O)c2ccco2)c1)c1ccco1
  16	-1.5	-6%	-5%[15.4 µM]	6	2
> Cc1c(NS(=O)(=O)c2ccc3nc(COc4ccccc4Cl)[nH]c3c2)c(=O)n(-c2ccccc2)n1C
  0	1.2	6%	3%	0	2
> COc1ccc(C(=O)C2CCCN(S(=O)(=O)c3cccc(C)c3)C2)c(C)c1 (centres undefined)
  2	-3.8	-15%	4%	2	27
> O=C(Nc1ccc(Cl)cc1)/C(=C1\CCCN1)[N+](=O)[O-]
  1	2.2	-4%	-24%[15.4 µM]	-3	11
> CC(=O)N1Cc2ccccc2C(C)CC12CCCC2 (centres undefined)
  1	-5.3	1%	27%[15.4 µM]	0	-5
> O=C(NCCc1ccc(Cl)cc1)c1cnc2n(c1=O)CCS2
  2	-5.4	1%	?	-1	2
> Cc1ccc2c(c1)CO[C@]21O[C@H](CCO)C[C@H](O)[C@H]1O
  -2	-4.5	.	?	2	-4
> CCN(CC)C(=O)c1ccc(NS(=O)(=O)c2ccc3[nH]c(=O)[nH]c3c2)cc1
  -2	-1.9	8%	-4%	13	0
> O=C(Nc1nccs1)[C@@H]1CC=C[C@@H]2CCN(Cc3ccccc3)C(=O)[C@@H]21
  -13	0.4	-1%	1%	-5	2
> Cc1cccc(NS(=O)(=O)c2nnc(NC(=O)c3ccc(Cl)cc3)s2)c1
  3	0.9	-21%	16%	-5	-26
> COc1cc(/C=C2\SC(=Nc3ccccc3OC)NC2=O)ccc1O
  -17	4.7	3%	-5%	11	-13
> COc1ccc(-n2nnnc2C(CCSC)N2CCN(C/C=C/c3ccccc3)CC2)cc1 (centres undefined)
  -26	-4.0	.	.	-15	-25
> COc1ccc(N2CCN(C(=O)CCc3nnc4ccc(N5CCCC5)nn34)CC2)cc1
  3	5.8	5%	28%	-4	.
> N#Cc1cccc(NC(=O)CCC2CCCC2)c1
  5	-3.8	2%	6%	-33	5
> COC(=O)C(NC(=O)c1ccc(Cl)cc1)(Nc1nc(C)cs1)C(F)(F)F (centres undefined)
  0	-0.9	-5%	3%	-2	-3
> COc1ccccc1C(=O)N/C(=C\c1cn(S(=O)(=O)N(C)C)c2ccccc12)C(=O)N1CCCC1
  1	8.3	-20%	19%	-8	4
> COc1cccc(C#Cc2c(CO)[nH]c3ccccc23)c1
  -5	-3.3	0%	-3%	-17	-3
> CC(N)C(=O)NC(C(=O)N1CCCC1C(=O)NC(c1ccccc1)c1ccccc1)C(C)C (centres undefined)
  -2	-5.9	9%	-3%	-3	-16
> COc1ccc(CN2CCNC(=O)C2CC(=O)NC2CCOCC2)cc1C (centres undefined)
  2	3.7	6%	-3%	-10	1
> CCc1ccc(C(=O)CSc2nc3cc(S(=O)(=O)N4CCOCC4)ccc3n2CC)cc1
  1	0.0	-4%	15%	-13	5
> O=S(=O)(Nc1ccccc1O)c1ccc(Cl)nc1
  5	-4.1	7%	-37%[inhibitor]	6	3
> COC(=O)c1c(NC(=O)Cc2ccccc2)sc2c1CC(C)(C)NC2(C)C
  -4	-4.6	1%	-3%	2	5
> CCCCc1ccc(S(N)(=O)=O)cc1
  3	-2.3	10%	-51%[inhibitor]	0	-2
> CC(=O)C1=C(c2ccccc2)NC(=O)NC1c1ccc(O)c(O)c1 (centres undefined)
  6	-3.4	8%	14%[15.4 µM]	-4	-5
> CCCCCCNC(=O)Cc1ccc(Br)cc1
  5	-0.1	0%	0%[15.4 µM]	-1	18
> CCN(CC)c1ccc2cc(C(=O)c3cccs3)c(=O)oc2c1
  28	7.0	.	.	9	57
> Cc1cc(OCC(=O)OCC(=O)Nc2ccc(Cl)cn2)ccc1Cl
  12	3.1	0%	-21%	0	0
> CCC(=O)NC(=S)Nc1ccc(NC(=O)c2ccco2)c(Cl)c1
  10	-3.7	-2%	6%[15.4 µM]	-9	.
> CC(=O)c1ccc(NC(=S)NNC(=O)c2ccccc2[N+](=O)[O-])cc1
  -2	-9.5	.	0%[15.4 µM]	-24	0
> Cc1occc1C(=O)Nc1ccc2c(c1)OCO2
  -6	-3.8	-2%	0%	-9	1
> COCCCNC(=S)N/N=C/c1ccc(O)cc1
  2	-0.1	6%	31%	3	.
> Cc1cc(C)c2c(CC(=O)O)coc2c1
  4	-4.2	1%	-30%[inhibitor]	-10	-1
> Cn1nccc1NC(=O)Nc1ccccc1
  7	3.5	14%	?	-7	-4
> CCCc1nc(SCC(=O)Nc2cc(C)on2)c2ccccc2n1
  0	-1.0	1%	27%	-3	-2
> CCOc1ccc(OCCC(=O)OCC(=O)Nc2cc(S(=O)(=O)N3CCOCC3)ccc2OC)cc1
  -1	-3.1	5%	-28%	0	-9
> CCCS(=O)(=O)NC(=O)C1(C)CCCN(C(=O)c2ccccc2OC)C1 (centres undefined)
  2	-2.2	.	.	-7	8
> CC(=O)Nc1ccc(S(=O)(=O)Nc2cc(C)c(-n3nc4ccccc4n3)cc2O)cc1
  -4	-2.1	-5%	?	-16	2
> COC(=O)CCSC(=S)N1CCOCC1
  -2	-4.4	8%	2%[15.4 µM]	-4	-3
> CCCN1C2CCCC1CC(NC(=S)Nc1cccc(C)c1C)C2 (centres undefined)
  -1	-3.3	-3%	8%	-13	-3
> COc1ccc(-c2csc(C(C)(O)c3cccnc3)n2)cn1 (centres undefined)
  5	-3.2	.	.	-7	-1
> CCOc1ccc(N(Cc2cc3cc(OC)ccc3[nH]c2=O)S(C)(=O)=O)cc1
  -2	-3.1	-6%	17%	-12	-2
> Cc1ccc(S(=O)(=O)N2CCCCC2)cc1NC(=O)COC(=O)Cc1ccc(Cl)cc1
  22	7.4	-10%	3%[15.4 µM]	-4	7
> CN(C)C=NC(=O)c1ccc([N+](=O)[O-])c(CS(=O)(=O)c2ccc(Cl)cc2)c1
  -7	0.5	4%[15.4 µM]	-12%	-1	-8
> COc1cc2ncnc(NCc3cccc(Cl)c3)c2cc1OC
  -9	-1.8	-18%	-12%	-16	-10
> COc1ccc(N2CCN(C(=O)c3ccc(C)cc3Cl)CC2)cc1
  -12	0.2	8%	-23%	-24	6
> O=C(CCn1c2c(c3ccccc31)CCCC2)NNC(=O)c1ccc([N+](=O)[O-])cc1
  -26	1.0	-5%	4%	0	-26
> Cc1ccc(CN2C(=O)CCC2C(=O)NC2CC2)cc1 (centres undefined)
  0	1.1	-3%	20%	-12	0
> Nc1ncnc2c1ncn2[C@@H]1O[C@H](CNS(=O)(=O)CCCCl)[C@@H](O)[C@H]1O
  -8	-0.3	17%	.	.	6
> CCc1nc(C)cn1S(=O)(=O)c1cc(Cl)c(OC)cc1Cl
  2	1.2	2%	-38%[inhibitor]	-9	1
> CCSc1ccc(C(=O)Nc2ccc(Br)cn2)cc1[N+](=O)[O-]
  -8	0.0	-1%	14%	-11	.
> CC(=O)Nc1ccc(NC(C)=O)s1
  9	-0.1	-9%	18%	-3	0
> O=c1c(/C=N/Nc2ccccc2)c(Sc2nnnn2-c2ccccc2)nc2ccccn12
  2	-3.0	-4%	-16%	-5	-2
> S=c1[nH]nc(-c2ccccc2)n1/N=C/C=C/c1ccco1
  -11	5.4	-17%	-16%	17	-1
> CSCC[C@@H](C(=O)NCCCCCCCCCCC(=O)N1CCNCC1)n1cc(CCO)nn1
  3	-2.3	15%	.	-4	-13
> N/C(=N\N=C\c1ccnc2ccccc12)SC1CC(=O)N(c2ccc(Br)cc2)C1=O (centres undefined)
  -10	-4.8	-4%	-26%	-3	0
> COc1ccc(NC(=O)CN(C)C(=O)c2ccc(S(=O)(=O)N3CCOCC3)cc2)cc1
  -2	-2.3	.	24%	-9	6
> COc1cccc(CC(=O)Nc2cccc3ccccc23)c1
  1	-0.5	6%	7%[15.4 µM]	0	8

# The list goes on.
# Values run as follows: Six1-Eya2 inh	D2 agonist	gsp antag	gsp agonist	D2 potentiator	CtBP-E1A inh
> CC1(C)CC(=O)C(C=Nc2ccc(O)c(N=CC3=C(O)CC(C)(C)CC3=O)c2)=C(O)C1
  2	-1.2	2%	3%	0	9
> Cc1c(C#N)c(NC(=O)C(C)C)n(Cc2ccccc2)c1C
  -3	2.4	8%	-19%	-2	3
> CCn1c(SC)nnc1-c1nnc(SC)n1CC
  0	-2.3	14%	15%	5	4
> COc1ccc(-c2cn(-c3ccc(OC)cc3)c(=S)[nH]2)cc1
  -6	-4.0	-8%	-2%[15.4 µM]	-6	2
> Cc1ccc(C(=O)COC(=O)c2ccc(Cl)c(N)c2)s1
  4	0.3	3%	-3%	1	13
> COCc1nnc(NC(=O)CCCCCN2C(=O)c3ccccc3C2=O)s1
  3	0.1	-16%	2%	-6	9
> N#CC1=C(N2CCOCC2)/C(=C\c2ccccc2)CC1
  1	1.5	-11%	26%	-12	.
> CN(C(=O)COC(=O)CSc1ccc([N+](=O)[O-])cc1)c1ccccc1
  6	0.2	4%	-6%	1	-4
> Cc1cc(C)n2nc(C(=O)OCC(=O)NC(=O)c3ccccc3)nc2n1
  -3	-3.9	5%	-11%[15.4 µM]	1	0
> CC1C/C(=C/c2ccncc2)C(=O)/C(=C/c2ccncc2)C1 (centres undefined)
  -1	-1.5	-29%	-1%	-15	6
> Cc1ccc(S(=O)(=O)N2C[C@H]3C(=O)C[C@@H](c4ccccc4)N(S(=O)(=O)c4ccc(Br)cc4)[C@H]3C[C@H]2c2ccccc2)cc1
  -11	-4.0	.	.	-6	-1
> Cc1cc(Br)ccc1NC(=S)Nc1cccc([N+](=O)[O-])c1
  -13	-7.9	-21%	-1%	-22	3
> CCO[C@H]1OC(C(=O)N2CCOCC2)=C[C@@H](c2ccc3c(c2)OCO3)[C@@H]1CCCO
  7	1.0	4%	.	-1	4
> COc1cc([N+](=O)[O-])ccc1-c1ccc(/C=N/NC(=O)OC(C)(C)C)o1
  9	5.1	-2%	?	-1	5
> CC(C)c1ccc(NC(=O)C2CC2c2ccccc2)cc1 (centres undefined)
  7	-2.2	-10%	-17%	-1	-1
> CN1CCCN(S(=O)(=O)c2ccc(Cl)c(Cl)c2)CC1
  -9	-5.6	23%	-9%	-15	-3

# Random excerpt: 2 records from the list
# Values run as follows: Six1-Eya2 inh	D2 agonist	gsp antag	gsp agonist	D2 potentiator	CtBP-E1A inh
> N#CC1=C(N2CCOCC2)/C(=C\c2ccccc2)CC1
  1	1.5	-11%	26%	-12	.
> CCn1c(SC)nnc1-c1nnc(SC)n1CC
  0	-2.3	14%	15%	5	4
